Bioassay records: PubChem, ICCB-Longwood Screening Facility, Harvard Medical School
Mtb MbtI inh: MbtI salicylate synthase inhibitors, primary screen, biochemical, fluorescence intensity; P9WFX0; purified MbtI enzyme, fluorescence intensity read-out; inhibition, %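 (about 17 µg/mL by stock and volumes)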; hit rate 0.89% among 100,000;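 active = above 50% in both replicates, above 80% if mildly self-fluorescent; inactive = the rest, strongly fluorescent compounds included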;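 also: 0% = mean of negative and 100% = mean of positive controls; one replicate is shown; some compounds called inactive have numbers as strong as hits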
Polio RdRp inh: poliovirus RdRp elongation inhibitors, primary screen, biochemical, fluorescence polarization, total intensity; poliovirus polymerase elongation; hits give low values; Genome polyprotein (Poliovirus type 1 (strain Mahoney)), P03300; % elongation, % (compound at 16.7 µg/mL); AID 588519, 2011; hit rate 0.66% among 150,000; in the data active = % elongation below about 90%; also: some results filed as inactive read as strong as hits
Target sequence (P03300 1749-2209 limits assumed): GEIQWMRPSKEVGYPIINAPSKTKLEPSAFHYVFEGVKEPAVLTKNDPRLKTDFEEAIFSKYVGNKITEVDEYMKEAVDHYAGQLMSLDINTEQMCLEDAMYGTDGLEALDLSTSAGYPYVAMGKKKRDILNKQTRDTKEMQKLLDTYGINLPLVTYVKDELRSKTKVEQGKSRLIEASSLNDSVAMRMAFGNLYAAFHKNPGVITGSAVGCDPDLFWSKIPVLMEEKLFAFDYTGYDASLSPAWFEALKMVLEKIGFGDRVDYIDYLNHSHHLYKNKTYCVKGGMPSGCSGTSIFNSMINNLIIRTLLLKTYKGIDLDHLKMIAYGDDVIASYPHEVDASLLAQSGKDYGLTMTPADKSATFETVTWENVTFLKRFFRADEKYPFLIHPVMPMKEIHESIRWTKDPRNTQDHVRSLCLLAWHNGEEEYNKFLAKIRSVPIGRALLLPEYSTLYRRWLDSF
Mtb MenB inh: M. tuberculosis MenB inhibitors, primary screen, biochemical, absorbance; AID 540299, 2011; inhibition, %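 (about 12 µg/mL by stock and volumes)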; hit rate 0.43% among 100,000; MenB enzyme assay, absorbance read-out; some hits fall short of the stated cut;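 active = mean of two replicates above 30%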;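 also: 0% = no compound and 100% = wells with inactive enzyme; the first replicate is given; strong numbers were not always called active; inactives centre near -10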
Target sequence (P9WNP5 whole entry, looked up): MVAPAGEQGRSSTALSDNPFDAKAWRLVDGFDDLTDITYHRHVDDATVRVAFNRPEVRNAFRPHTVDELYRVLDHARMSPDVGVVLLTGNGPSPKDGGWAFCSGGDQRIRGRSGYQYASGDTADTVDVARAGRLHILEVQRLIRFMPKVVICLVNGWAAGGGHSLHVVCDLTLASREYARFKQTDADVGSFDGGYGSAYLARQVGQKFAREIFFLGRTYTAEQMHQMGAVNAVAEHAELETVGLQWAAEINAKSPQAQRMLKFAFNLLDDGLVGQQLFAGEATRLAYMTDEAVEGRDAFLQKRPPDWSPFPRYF
Polio RdRp inh intensity: recorded beside Polio RdRp inh, whose call it bears; % elongation; measured here: total intensity read-out; formula for this scale not given here;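 total fluorescence in place of polarization; lower means less elongation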
The depositor's hits bear a star; nt = no result given; & = joins results of further samples; ! = not confirmed by another sample.

SMILES	Mtb MbtI inh	Polio RdRp inh	Polio RdRp inh intensity	Mtb MenB inh
Cn1nc(Oc2ccc3ccc(=O)oc3c2)c(=O)n(C)c1=O	-8	107	101	-8
C=CCN1C(=O)C(Cc2c[nH]c3ccccc23)NC1=S (configuration not stated)	nt	111	111	-12
C=CCn1cc(C=C2C(=O)NC(=O)NC2=O)c2ccccc21	36	104	103	-31
c1ccc2[nH]c(-c3nc4ccccc4s3)nc2c1	109	95	136	-16
N#Cc1ccccc1Cn1c(=O)n(Cc2ccc(C(=O)NCc3ccco3)cc2)c(=O)c2sccc21	-1	101	110	-17
CCOc1ccc2nc(NCCNC(=O)Nc3ccc(SC)cc3)c(C#N)cc2c1	-7	106	100	-28
CC(C)C(NC(=O)c1ccc(F)cc1)C(=O)OCc1ccccc1 (configuration not stated)	0	100	98	nt
Cc1ccccc1-n1nc(C)c2c1CC(C)(C)CC2=O	-5	101	104	-60
OCCn1nnnc1NCc1ccc(Br)cc1	-14	101	104	-15
O=C1COc2ccc(C(=O)CSc3nnc(-c4ccoc4)c(-c4ccoc4)n3)cc2N1	17	98	94	-41
c1ccc(C2C/C(=N\n3cnnc3)c3ccccc3O2)cc1 (configuration not stated)	0	102	99	nt
OCc1nc2ccccc2n1CC(O)Cn1ccc2ccccc21 (configuration not stated)	-1	101	102	14
CCCNS(=O)(=O)c1cc(Cl)ccc1OC	3	99	102	-119
O=C(CC1Sc2ncnn2C1=O)Nc1ccccc1 (configuration not stated)	100*	100	102	-16
COCc1c(C(=O)OCc2cc(Cl)c3c(c2)OCO3)oc2ccccc12	25	106	109	3
CCCCC(=O)NC(c1ccc(N(C)C)cc1)c1ccc2cccnc2c1O (configuration not stated)	20	100	102	-107
CCOC(=O)C1C(=O)C=C(c2cccs2)CC1c1ccc(F)cc1 (configuration not stated)	1	101	94	-36
CCOC(=O)c1cnc(SCc2nc(-c3ccc(C)cc3)oc2C)nc1N	-4	104	103	-2
CC(=O)N(C(C)=O)c1cc(C)c(C#N)c2nc3ccccc3n12	-18	102	101	10
S=c1nc(N2CCCCC2)[nH]c(N2CCCCC2)n1	-3	99	101	-20
O=C1c2ccccc2C2CC(c3cc(Cl)ccc3Cl)=NN12 (configuration not stated)	-2	112	114	-3
O=C(NCC1CCCO1)C1CCCCC1 (configuration not stated)	nt	100	102	-7
COc1ccc2c(c1)c(C#N)c1n2CCN=C1N(C)C	0	105	109	-23
COc1ccccc1NC(=O)CN(Cc1ccco1)C(=O)c1cccs1	0	102	107	-9
Cc1ccnc(NS(=O)(=O)c2ccc(NC(=O)/C=C/c3ccccc3)cc2)n1	12	103	105	-1
Next compounds:
SMILES	Mtb MbtI inh	Polio RdRp inh	Polio RdRp inh intensity	Mtb MenB inh
O=C(Cc1c(F)cccc1Cl)OCC(=O)c1ccccc1	-12	99	100	nt
O=C1C2ON(c3ccccc3)C(c3cccs3)C2C(=O)N1c1ccccc1 (configuration not stated)	1	105	101	-21
Cc1ccc(NC(=O)NC(=O)CN2CCC(C)CC2)c(C)c1	3	104	108	-34
Cc1c(Cl)cccc1NC(=O)Nc1cccc(Cn2cccn2)c1	-9	98	101	-14
CCOC(=O)NC12CC3CC(CC(C3)C1)C2	-1	100	102	-11
O=C(O)c1ccc(N=C2NC(=O)C(CO)(CO)S2)cc1	-8	103	106	-21
COCC(C)Nc1nc2c(s1)CCCC2 (configuration not stated)	12	104	110	-7
O=C(NC1CCCc2ccccc21)c1cc(C2CC2)[nH]n1 (configuration not stated)	-27	104	102	-1
COc1ccccc1C(=O)COC(=O)C1CCN(S(=O)(=O)c2cccs2)CC1	-4	101	108	-23
Cc1cccc(OCC(=O)NC(=S)Nc2ccc(-c3nc4ccccc4o3)cc2)c1	-88	101	102	6
O=C(C1COc2ccccc2O1)N1CCc2ccccc21 (configuration not stated)	-16	96	96	-20
O=C(/C=C/c1ccccc1)C1=C(O)C(=O)N(c2ccccc2)C1c1ccccc1 (configuration not stated)	4	100	103	-139
CS(=O)(=O)N(CC(=O)N1CCCC1)Cc1ccc(F)cc1	-7	100	102	9
O=C1CCC(=O)N1CCCn1c2ccccc2c2nc3ccccc3nc21	-2	101	100	-23
Cc1ccc2c(c1)N(CC(=O)N1CCCC1)C(=O)c1cccnc1O2	-18	101	104	-16
NCCNC(=O)CCc1n[nH]c(=O)c2ccccc12	-12	102	103	-1
CCOC(=O)Cn1cc(I)c(=O)[nH]c1=O	-4	101	104	-20
COc1ccc(C(=O)CSc2nnc(C)s2)cc1OC	-3	101	103	-2
Cc1cc(N2CCOCC2)ccc1/C=N/n1cnnc1	nt	105	110	-18
Cc1cc(=O)n(CC(=O)Nc2ccc3c(c2)OCO3)c2c1c(C)nn2-c1cccc(F)c1	-15	100	102	7
COc1ccc(N2CCN(C(=O)CN3CC=C(c4ccccc4)CC3)CC2)cc1	2	102	97	9
CONc1nc(NC(C)(C)C)nc(OCC#N)n1	2	102	101	-30
Cc1c(C(=O)CN2C(=O)COc3ccc(Cl)cc32)c2ccccc2n1C	-3	105	101	-7
COC(=O)c1ccc(C(=O)OC)c(N=CC2=C(O)CC(C)(C)CC2=O)c1	-13	101	102	3
COC(=O)c1ccc(CSCC(=O)Nc2ccccc2)cc1	8	100	103	-18

Seven entries from above, arranged by count of non-hydrogen atoms, smallest number first:
SMILES	Mtb MbtI inh	Polio RdRp inh	Polio RdRp inh intensity	Mtb MenB inh
COCC(C)Nc1nc2c(s1)CCCC2 (configuration not stated)	12	104	110	-7
CCOC(=O)NC12CC3CC(CC(C3)C1)C2	-1	100	102	-11
CC(=O)N(C(C)=O)c1cc(C)c(C#N)c2nc3ccccc3n12	-18	102	101	10
COCc1c(C(=O)OCc2cc(Cl)c3c(c2)OCO3)oc2ccccc12	25	106	109	3
COc1ccccc1C(=O)COC(=O)C1CCN(S(=O)(=O)c2cccs2)CC1	-4	101	108	-23
COc1ccc(N2CCN(C(=O)CN3CC=C(c4ccccc4)CC3)CC2)cc1	2	102	97	9
N#Cc1ccccc1Cn1c(=O)n(Cc2ccc(C(=O)NCc3ccco3)cc2)c(=O)c2sccc21	-1	101	110	-17

(next part)
SMILES	Mtb MbtI inh	Polio RdRp inh	Polio RdRp inh intensity	Mtb MenB inh
CCOc1ccc(CN2CCN(Cc3ccco3)CC2)cc1	nt	104	105	-13
Cc1nc(-c2cccs2)cs1	1	100	105	nt
CCN(CC)C(=S)SCc1cn2cccc(C)c2n1	22	102	106	-25
Nc1nc(SCC(=O)NCCN2CCOCC2)nc2sc3c(c12)CCC3	14	104	104	9
CCOC(=O)c1c[nH]c2ccc(OC)cc2c1=O	nt	104	108	-2
Cc1cc(C)cc(NC(=O)NCc2csc(-c3cccs3)n2)c1	-11	104	115	-16
Cc1ccc2cc(C#N)c(SCC(=O)NCc3ccco3)nc2c1	9	103	106	-9
N#C/C(C(=O)Nc1cc(C(F)(F)F)ccc1Cl)=C1\CCCN1	-16	104	106	nt
Cc1ccc(S(=O)(=O)NNC2CS(=O)(=O)c3ccccc32)cc1 (configuration not stated)	-12	103	106	-16
Cc1nnsc1-c1n[nH]c(=S)n1C1CC1	0	105	111	-18
CC1C(=O)N2CCCc3cc(S(=O)(=O)NCc4ccc(F)cc4)cc1c32 (configuration not stated)	1	102	107	-7
CSc1cccc(NC(=O)Cn2nc(SC)c(S(=O)(=O)c3ccccc3)c2N)c1	-8	100	103	-7
O=C(O)CCOc1ccccc1	-8	104	105	nt
Cc1[nH]nc(-c2ccc(O)cc2O)c1Oc1ccc(C(C)C)cc1	2	94	94	-31
Cc1sc2nc[nH]c(=S)c2c1C	57*!	100&99	93&105	-65&-65
CCN(CC)C(=O)COc1cc(=O)n(CC)c2ccccc12	3	102	104	-14
Cc1sc2ncn(CC(=O)Nc3nc4ccccc4s3)c(=O)c2c1S(=O)(=O)N1CC(C)CC(C)C1 (configuration not stated)	0	98	102	-76
COC(=O)C1(C#N)C(c2ccc(C)cc2C)C(C(=O)c2ccccc2)N2c3ccccc3C=CC21 (configuration not stated)	nt	128	147	-6
COC(=O)c1cn(-c2ccccc2)nc1N	0	100	101	-14
Cn1c(C(C#N)C(=O)CC23CC4CC(CC(C4)C2)C3)nc2ccccc21 (configuration not stated)	-11	116	110	-15
CC1CCCCN1C(=S)NC1CCCC1 (configuration not stated)	-1	100	100	-18
CC(C(=O)Nc1ccc2c(c1)OCCO2)n1nnc(-c2ccccc2)n1 (configuration not stated)	nt	106	112	-2
Cc1ccc(N=C2C(=O)Nc3ccccc32)c(C)c1	4	99	95	-82
O=C(Nc1ccccc1)c1cnn(-c2ccccc2)c1C1CCNCC1	12	100	101	6
O=c1ccc2ccc(Oc3nc(-c4cccnc4)nc4ccccc34)cc2o1	nt	99	99	-40

In another format: results already given
structure | Mtb MbtI inh | Polio RdRp inh | Polio RdRp inh intensity | Mtb MenB inh
CCOC(=O)c1c[nH]c2ccc(OC)cc2c1=O | nt | 104 | 108 | -2
Cc1cc(C)cc(NC(=O)NCc2csc(-c3cccs3)n2)c1 | -11 | 104 | 115 | -16
Cc1ccc2cc(C#N)c(SCC(=O)NCc3ccco3)nc2c1 | 9 | 103 | 106 | -9
N#C/C(C(=O)Nc1cc(C(F)(F)F)ccc1Cl)=C1\CCCN1 | -16 | 104 | 106 | nt
Cc1ccc(S(=O)(=O)NNC2CS(=O)(=O)c3ccccc32)cc1 (configuration not stated) | -12 | 103 | 106 | -16
Cc1nnsc1-c1n[nH]c(=S)n1C1CC1 | 0 | 105 | 111 | -18

Other records.
SMILES	Mtb MbtI inh	Polio RdRp inh	Polio RdRp inh intensity	Mtb MenB inh
NC(=O)c1nnc2cc(-c3ccccc3)nn2c1N	-10	104	112	-9
Cn1c(NN)nc2ccccc21	-1	101	104	nt
CC1CCc2c(C(=O)O)csc2C1 (configuration not stated)	7	103	105	-20
Cc1c(C(=O)NCCC(C)C)oc2ccc(S(=O)(=O)N3CCC4(CC3)OCCO4)cc12	4	99	95	-4
COC(=O)C1C(c2ccc(Cl)cc2)C(C(=O)OC)S(=O)(=O)CS1(=O)=O (configuration not stated)	-14	104	105	-20
CCC(=O)c1cn(CC(=O)NC2CCCCC2)c2ccccc12	nt	105	102	-10
C=CCN1C(=O)C2(C(C#N)=C(N)Oc3c2c(=O)oc2ccccc32)c2ccccc21 (configuration not stated)	-3	98	93	0
O=C(Oc1cccc2cccnc12)N1c2ccccc2Sc2ccccc21	10	103	102	-37
Cc1ccc(CSc2nc(N)cc(N)n2)cc1	4	101	101	36*
CCS(=O)(=O)c1ccccc1C(=O)Nc1sccc1C(=O)NC	8	104	106	-28
CCOC(=O)c1c(NC(=O)CC2CCCC2)sc(C)c1C	23	102	99	nt
CCOC(=O)/C=C1\SCC(=O)N1CC(=O)OCC	14	103	106	-12
CC(C)Oc1ccc2c(C(F)(F)F)cc(=O)oc2c1	168	103	110	6
O=C(NCC(c1ccco1)N1CCCCC1)c1cc(C(F)(F)F)cc(C(F)(F)F)c1 (configuration not stated)	17	100	104	-2
Brc1ccc(Oc2ncnc3c2oc2ccccc23)cc1	-7	105	102	-25
CCOc1c(CNCc2ccc3c(c2)OCO3)cccc1OC	0	101	104	-13
N#Cc1c(C(F)(F)F)cc(-c2ccccc2)[nH]c1=S	nt	104	111	-110
COc1ccc(N2Cc3cccc(C(=O)Nc4cccc(OC)c4)c3C2=O)cc1	-6	99	99	-5

As entered above:
COCc1c(C(=O)OCc2cc(Cl)c3c(c2)OCO3)oc2ccccc12 in Mtb MenB inh has 3
CCOC(=O)/C=C1\SCC(=O)N1CC(=O)OCC in Polio RdRp inh intensity has 106
C=CCn1cc(C=C2C(=O)NC(=O)NC2=O)c2ccccc21 in Mtb MenB inh has -31
